TSHR agonist – qHTS Assay for Agonists of the Thyroid Stimulating Hormone Receptor; AID 926, 2007; hit rate 0.48% among 73,000; HEK293-CNG-TSHR cells (CNG channel as cAMP sensor), membrane potential dye, cAMP; Potency, µM (series often up to 57.1 µM), for inactives: at the highest dose activation, most hits filed as activators; active = well fitted activation curve of enough size with the parental cells flat; inconclusive = any curve in the parental cells; inactive = parental cells flat and receptor cells flat or falling; note: potency is the fitted concentration of half-maximal effect; % of control where 0% means no effect; weak receptor curves with flat parental cells got no call and are not listed
Target sequence (P16473 whole entry, looked up): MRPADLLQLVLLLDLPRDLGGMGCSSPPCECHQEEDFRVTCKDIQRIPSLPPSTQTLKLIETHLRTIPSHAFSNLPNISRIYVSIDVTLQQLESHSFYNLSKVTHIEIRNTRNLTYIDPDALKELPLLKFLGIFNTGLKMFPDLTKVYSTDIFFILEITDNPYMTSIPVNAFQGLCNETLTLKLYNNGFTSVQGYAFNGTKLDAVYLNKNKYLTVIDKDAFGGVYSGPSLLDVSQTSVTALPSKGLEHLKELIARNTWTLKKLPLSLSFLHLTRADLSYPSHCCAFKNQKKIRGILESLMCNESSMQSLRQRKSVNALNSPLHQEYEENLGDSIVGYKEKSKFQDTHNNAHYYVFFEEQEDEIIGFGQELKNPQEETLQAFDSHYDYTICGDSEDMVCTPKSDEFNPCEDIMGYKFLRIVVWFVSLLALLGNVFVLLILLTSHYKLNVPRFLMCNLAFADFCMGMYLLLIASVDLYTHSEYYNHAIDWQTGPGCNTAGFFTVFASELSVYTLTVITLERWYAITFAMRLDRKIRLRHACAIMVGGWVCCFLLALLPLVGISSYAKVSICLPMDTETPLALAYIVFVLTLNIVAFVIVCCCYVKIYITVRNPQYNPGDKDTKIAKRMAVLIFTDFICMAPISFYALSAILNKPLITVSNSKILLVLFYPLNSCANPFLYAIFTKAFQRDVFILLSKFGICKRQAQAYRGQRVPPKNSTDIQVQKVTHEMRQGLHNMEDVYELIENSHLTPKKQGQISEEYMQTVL
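HEK 293 cells stably expressing TSHR and a modified CNG channel, with CNG-only parental cells as counterscreen, were preloaded 60 min at room temperature with membrane potential dye containing 100 uM RO 20-1724. Compound exposure was 30 min, and depolarization was read as fluorescence at 590 nm.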
A647 autofl – qHTS Assay for Spectroscopic Profiling in A647 Spectral Region; 59,000 tested, under 10 active; Compound fluorescence, A647 channel (570/671 nm), Tris buffer; AID 592, 2007; max dye-equivalent concentration, M; active means above 1 µM dye equivalent; inconclusive means 0.1 to 1 µM; inactive means 0.1 µM or less;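 note: values scaled relative to a standard on each plate; highest value over a series up to 38 µM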
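Compound fluorescence was measured in 100 mM Tris buffer, pH 8.0, after 15 min at room temperature, using 570 nm excitation and 671 nm emission filters. Signal was normalized to a per-plate Alexa 647 standard curve and expressed as dye-equivalent concentration at each compound concentration.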
A488 fluor – qHTS Assay for Spectroscopic Profiling in A488 Spectral Region | compound autofluorescence, A488 spectral region, dye equivalency; hits give high values | max dye equivalency, M | hit rate 0.1% among 59,000 | AID 591, 2007; active = above 10 nM dye equivalent; inconclusive = 1 to 10 nM; inactive = 1 nM or less; about half of its hits are not listed in these tables;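 note: highest value over a series up to 38 µM; compound alone in buffer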
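Readout is A488 dye-equivalent concentration, calibrated by a per-plate six-point Alexa 488 series. Compounds in 100 mM Tris buffer pH 8.0 were incubated 15 min at room temperature. Plates were imaged using 480 nm excitation/540 nm emission filters.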
Resorufin autofl – qHTS Assay for Spectroscopic Profiling in Resorufin Spectral Region | Compound fluorescence, resorufin region 547/598 nm, buffer; hits give high values | max dye-equivalent concentration, M | hit rate 0.04% among 59,000; active = above 10 nM dye equivalent; inconclusive = 1 to 10 nM; inactive = 1 nM or less; a few of its hits are not listed in these tables; note: highest value over a series up to 38 µM
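Intrinsic fluorescence profiled in the resorufin window (ex 547 nm, em 598 nm) after 15 min at room temperature in pH 8.0 Tris buffer (100 mM); responses normalized against a six-point resorufin standard series as dye-equivalent concentration.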
AID923 – qHTS Assay for Allosteric/Competitive Inhibitors of Caspase-1: Spectroscopic Profiling in AFC Spectral Region. compound fluorescence, AFC spectral region (405/520 nm); almost no hit is shown here. Potency, µM (highest dose often 57.5 µM), for inactives: at the highest dose fluorescence increase, hits mostly activators. hit rate 1.1% among 75,000. AID 923, 2007; active = well fitted activation curve with a large enough effect; inconclusive = small, poorly fitted or top-dose-only effect;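 note: potency is the fitted concentration of half-maximal effect; 0% is about no effect; scaled to a free AFC standard on each plate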
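Baseline compound fluorescence (AFC region, 405 nm ex/520 nm em) taken from the intercept of kinetic reads with 50 nM caspase-1 and 5 uM Ac-WEHD-AFC; normalized to an on-plate AFC standard curve; compounds titrated up to 57 uM.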
The depositor's hits bear a star; i = inactive; ? = inconclusive; · = not tested or not shown; & = joins results of further samples; [ ] = another dose, or the depositor's remark.

SMILES	TSHR agonist	A647 autofl	A488 fluor	Resorufin autofl	AID923
N#Cc1ccccc1S(=O)(=O)N1CCN(c2ccc(S(=O)(=O)N3CCOCC3)cn2)CC1	?	2.05e-08	i	i	2.4%
NCCCCNS(=O)(=O)c1cccc2c(Cl)cccc12	8.0%	1.1e-08	i	i	-3.1%
CNC(=O)[C@H]1O[C@H](n2cnc3c(NCc4cccc(I)c4)nc(Cl)nc32)[C@@H](O)[C@@H]1O	4.3%	·	·	·	-3.4%
CCOc1ccc(S(=O)(=O)Nc2cccc(C(=O)N3CCN(c4ccc(OC)cc4)CC3)c2)cc1	8.4%	4.28e-08	i	i	0.0%
CCOc1ccc(C2C(C(=O)c3ccco3)=C(O)C(=O)N2CCCn2ccnc2)cc1 (stereo not given)	7.9%	3.97e-08	i	i	0.7%
COc1ccc(OC)c(S(=O)(=O)Nc2ccc(C(N)=O)cc2)c1	-11.3%	1e-09	i	i	-2.4%
CC1Cc2c(COc3ccccc3)nc3c(c2CO1)CN(CCOc1ccccc1)CC3 (stereo not given)	10.3%[11.4 µM]	·	·	·	0.3%[11.5 µM]
Cc1ccc(S(=O)(=O)NCCSc2nnnn2C)cc1	0.6%	1e-09	i	i	-0.8%
Cc1oc(-c2cccc(Cl)c2)nc1CN1CCC(C(=O)NCc2cccnc2)CC1	5.2%	4.29e-08	i	i	-0.9%
FC(F)(F)c1cc(-c2ccc3c(c2)OCO3)nc(NCc2ccco2)n1	?	2.88e-08	i	i	-2.9%
CCC(C)c1ccc(NC(=O)C2CCCN(c3ncccn3)C2)cc1 (stereo not given)	?	1e-09	i	i	1.4%
c1ccc(OCCCc2nc(-c3cccnc3)no2)cc1	7.1%	2.86e-08	i	i	-2.6%

Compounds above containing a furan ring, fused or not:
SMILES	TSHR agonist	A647 autofl	A488 fluor	Resorufin autofl	AID923
CCOc1ccc(C2C(C(=O)c3ccco3)=C(O)C(=O)N2CCCn2ccnc2)cc1 (stereo not given)	7.9%	3.97e-08	i	i	0.7%
FC(F)(F)c1cc(-c2ccc3c(c2)OCO3)nc(NCc2ccco2)n1	?	2.88e-08	i	i	-2.9%

New compounds follow.
SMILES	TSHR agonist	A647 autofl	A488 fluor	Resorufin autofl	AID923
Fc1ccc(Nc2ccnc(-c3ccoc3)n2)cc1	5.8%	3.07e-08	i	i	1.6%
O=C1CC(c2ccc3c(c2)OCO3)C2=C(CCCC2=O)N1 (stereo not given)	6.1%	3.1e-08	i	i	1.3%
COc1cc(C(=O)Nc2cccc3ncccc23)cc(OC)c1OC	1.3%	2.94e-08	i	i	0.7%
O=C(Nc1ccccc1O)c1ccccc1O	22.7%	·	·	·	3.5%
Cc1ccc(NCc2nnc(SCC(=O)Nc3ccccc3)n2CC2CCCO2)c(C)c1 (stereo not given)	4.7%	3.5e-09	i	i	-1.0%
Cc1cc(NC(=O)c2cccc(F)c2)ncc1NC(=O)c1ccco1	29.1%	9.4e-09	i	i	-2.2%
CCn1c(SCC(=O)Nc2ccc(NC(C)=O)cc2)nnc1C1CC1	-2.8%	1e-09	i	i	-4.0%
Nc1nc(-c2cccnc2)nc(N2CCCCC2)n1	4.0%	2.48e-08	i	i	-0.9%
CCCS(=O)(=O)N1CCC(C(=O)NCCc2ccc(C)cc2)CC1	0.0%	3.6e-09	i	i	-0.2%
O=C(CN(CC1CCCO1)C(=O)Cn1nnc(-c2ccc(F)cc2)n1)NC1CCCCC1 (stereo not given)	9.0%	6e-09	i	i	0.1%
O=C(Cn1cc2c(n1)CCCC2)NC1CCN(Cc2ccccc2)CC1	5.9%	·	·	·	2.8%
COc1ccc(Br)cc1S(=O)(=O)N1CCN=C1C	-8.2%	·	·	·	4.1%
[N-]=[N+]=CC(=O)c1ccnc(C(=O)C=[N+]=[N-])c1	·	9.5e-08	i	i	·
CCn1cc(C(=O)NCCCN2CCC(C)CC2)c2cc(OC)c(OC)cc2c1=O	-2.2%	·	·	·	2.7%
CCOC(=O)c1cc2oc(C(c3nnnn3C3CCCCC3)N3CCOCC3)cc2[nH]1 (stereo not given)	?	2.4e-09	i	i	0.9%
Cc1sc2nc(-c3cccs3)nc(N3CCCN(C)CC3)c2c1C	22.3%	1e-09	i	i	2.1%
CCn1c(=O)c2cc(S(=O)(=O)NC3CCCCC3)ccc2n(CC)c1=O	-5.9%	1.82e-08	i	i	0.7%
COc1cc(C(=O)Nc2oc(-c3ccccc3)c(-c3ccccc3)c2C#N)cc(OC)c1OC	·	2.8e-09	i	i	1.0%
Cc1c[nH]c2cccc(OCC(O)CNC(C)(C)C)c12 (stereo not given)	0.4%	1e-09	i	i	-1.5%
CCOC(=O)CCSc1nc(C)c2ccccc2n1	13.9%	2.68e-08	i	i	0.2%
C#CCOc1ccc2c(C)cc(=O)oc2c1	?	2.2e-09	i	i	-0.4%
CC(C)Oc1ccc(C(=O)N(Cc2ccco2)C2CCS(=O)(=O)C2)cc1 (stereo not given)	13.6%	1.73e-08	i	i	0.9%
COCCNC(=O)c1ccc(Cl)c(Cl)c1	-2.3%	9.9e-09	i	i	-0.9%
CC(C)C(CO)NC(=O)CC(=O)NC(CO)C(C)C (stereo not given)	8.1%[11.4 µM]	·	·	·	2.8%
COc1cccc(N2CCN(Cc3cccnc3)CC2)c1	6.5%	·	·	·	0.4%
O=C(CN(CCO)c1ccccc1)NC12CC3CC(CC(C3)C1)C2	4.1%	1.07e-08	i	i	-1.6%
CNCCC=C1c2ccccc2CCc2ccccc21	?	3.33e-08&8.5e-09&1.8e-09&4.33e-08	i	i	-0.7%
COc1ccc(N2CCN(C(CNS(=O)(=O)c3cccs3)c3cccnc3)CC2)cc1 (stereo not given)	-3.9%	3.1e-09	i	i	1.7%
C=CCNc1nc(-c2cccc(OC)c2O)nc2ccccc12	·	1.6e-09	i	i	·
CCOC(=O)c1[nH]c(C)c(CN(Cc2ccco2)C(=O)C(F)(F)F)c1C	11.3%[11.4 µM]	3.21e-08	i	i	-3.0%
N#CC1=C(SCc2ccccc2)NC2=C(C(=O)CCC2)C1c1ccc2c(c1)OCO2 (stereo not given)	·	2.33e-08	i	i	·
CC(=O)N(c1ccc(N(C(C)=O)S(=O)(=O)c2cccs2)cc1)S(=O)(=O)c1cccs1	-12.6%	1e-09	i	i	-0.5%
COc1ccc(Cl)cc1S(=O)(=O)Nc1cccc(C(=O)O)c1	1.4%	1e-09	i	i	1.7%
COc1ccc(CCNC(=O)CNCC2CCCO2)cc1OC (stereo not given)	1.3%	3.39e-08	i	i	-0.1%
Cc1cc(C)c2[nH]c(=O)c(C(c3nnnn3CC3CCCO3)N3CCCC(C)C3)cc2c1 (stereo not given)	?	5e-09	i	i	-0.7%
Cc1ccc(-c2nnn(CC(=O)N(CC(=O)NCC3CCCO3)c3ccccc3)n2)o1 (stereo not given)	2.3%	1.9e-09	i	i	1.1%

Three records picked at random from those above, as already listed:
SMILES	TSHR agonist	A647 autofl	A488 fluor	Resorufin autofl	AID923
Cc1ccc(NCc2nnc(SCC(=O)Nc3ccccc3)n2CC2CCCO2)c(C)c1 (stereo not given)	4.7%	3.5e-09	i	i	-1.0%
CCOc1ccc(S(=O)(=O)Nc2cccc(C(=O)N3CCN(c4ccc(OC)cc4)CC3)c2)cc1	8.4%	4.28e-08	i	i	0.0%
Cc1ccc(S(=O)(=O)NCCSc2nnnn2C)cc1	0.6%	1e-09	i	i	-0.8%

The listing continues.
SMILES	TSHR agonist	A647 autofl	A488 fluor	Resorufin autofl	AID923
O=C(Cn1cccc1)N1CCc2ccccc21	11.0%[11.4 µM]	2.63e-08	i	i	1.1%
Cc1cc2c(c(=O)o1)C(CC(C)C)C(C#N)=C(N)O2 (stereo not given)	·	1.6e-09	i	i	·
CCOC(=O)C1CCN(c2c(N3CCCC(C(=O)OCC)C3)c(=O)c2=O)CC1 (stereo not given)	1.5%	·	·	·	-1.3%
CCC1(C)Cc2c(sc3[nH]c(=O)[nH]c(=O)c23)CS1 (stereo not given)	·	3.31e-08	i	i	·
c1ccc(N2CCN(c3nc(-c4ccccn4)nc4ccccc34)CC2)cc1	·	3.39e-08	i	i	·
CS(=O)(=O)N(CC(=O)Nc1ccc2c(c1)OCCO2)Cc1ccccc1	4.9%	1.82e-08	i	i	-5.1%
O=C1c2ccccc2C(=O)N1Cc1nc2ccccc2c(=O)n1CCCN1CCOCC1	15.3%	2.3e-09	i	i	-1.5%
CCCc1nnc(NC(=O)CSc2ncn[nH]2)s1	2.1%	·	·	·	-1.1%
CC(C)(C)NC(=O)C1CC(=O)OC12CCCCC2 (stereo not given)	·	8.6e-09	i	i	0.0%
c1csc(-c2nn3c(-c4ccncc4)nnc3s2)c1	-3.6%	2.3e-09	i	i	1.7%
Cc1ccccc1-c1nc(N2CCNCC2)c2ccccc2n1	?	1e-09	i	i	3.4%
Cc1ncoc1C(=O)Nc1ccccc1C(N)=O	1.4%	1.71e-08	i	i	-2.0%
CC(NC(=O)C1CCCCC1)c1ccc2c(c1)OCCO2 (stereo not given)	-23.0%	3.39e-08	i	i	2.4%
COc1ccc(CNC(=O)CN2CCC(C(=O)c3ccc(OC)cc3)CC2)cc1	?	1e-09	i	i	1.2%
O=C(CC1C(=O)NCCN1C(=O)c1ccc(F)cc1)OCc1ccccc1 (stereo not given)	2.0%	4.25e-08	i	i	-3.5%
COc1ccc(CCNS(=O)(=O)c2cccs2)cc1	-1.0%	1.2e-08	i	i	-5.3%
O=C1CC(c2cccc(Cl)c2)CC(O)=C1C=NCCCO (stereo not given)	-5.3%	1e-09	i	i	1.7%
CC(=C1C(=O)c2ccccc2C1=O)N1CCN(c2ccccn2)CC1	-2.6%	3.67e-08	i	i	1.1%
CC(=O)c1cccc(NC(=O)C2CC(=O)N(c3cccc(C)c3C)C2)c1 (stereo not given)	8.3%	·	·	·	3.2%
CCOc1ccccc1-c1nc(SCC(=O)O)n[nH]1	21.9%[11.4 µM]	·	·	·	3.2%
Cn1c(=NC(=O)CSCC(=O)N2CCOCC2)sc2ccccc21	-1.6%	3.2e-08	i	i	-1.0%
CC(C)CCOCC(=O)Oc1ccccc1C(=O)O	1.1%	1e-09	i	i	5.2%
CCOc1cc(-c2ccc3c(c2)OCO3)cc(=O)c2c(C)oc(C)c12	4.9%	1e-09	i	i	0.1%
CCOc1ccc(CCNC(=O)c2cccnc2N2CCCC2)cc1OCC	6.1%	1e-09	i	i	1.7%
O=C(CSc1nnc(-c2cccnc2)n1Cc1ccco1)N1CCc2ccccc21	-5.9%	1e-09	i	i	0.9%
c1cncc(-c2nn3c(Cn4cnc5ccccc54)nnc3s2)c1	0.5%	2.89e-08	i	i	-1.3%
O=C(Nc1ccc2c(c1)nc1n2CCSC1)c1ccco1	-16.2%	2.67e-08	i	i	6.0%
CCC1CCCCN1C(=O)CSc1nnc(-c2cccs2)o1 (stereo not given)	3.5%	4.76e-08	i	i	0.1%
COc1nc(Nc2ccc(O)cc2)nc(OC(C(F)(F)F)C(F)(F)F)n1	7.9%[11.4 µM]	3.3e-08	i	i	-1.7%
Oc1c(C(Nc2ccccn2)c2ccccn2)ccc2cccnc12 (stereo not given)	22.7%	1e-09	i	i	0.9%
N[C@H](Cc1ccc(O)c(I)c1)C(=O)O	-1.0%	1e-09	i	i	·
O=C(NCCCN1CCN(Cc2ccccc2)CC1)C1CCN(c2nnc(-n3cccc3)s2)CC1	21.0%	8.5e-09	i	i	0.4%
COC(=O)c1ccc(CN(c2ccccc2OC)S(=O)(=O)c2cccs2)o1	?	7.5e-09	i	i	-1.4%
CCNc1nc(NC(C)(C)C)nc(N(CC)n2cnnc2)n1	1.0%	2.15e-08	i	i	0.0%
COc1cccc2c(=O)n(CC(=O)NC3CCCCC3)ccc12	23.1%	·	·	·	-6.0%

Compound activity deposited in PubChem BioAssay by National Center for Advancing Translational Sciences (NCATS).

These rows are one share of the data (hit frequency here may not be typical).
